# VDR inh = Inhibitors of the vitamin D receptor (VDR): qHTS. 0.93% of 400,000 active. Potency, µM, for inactives: max response, negative = inhibition, hits mostly inhibitors. VDR-SRC2-3 peptide fluorescence polarization, 2 h. AID 504847, 2011; active = well fitted inhibition curve with a large enough effect; inconclusive = small, poorly fitted or top-dose-only effect, or another doubt; inactive = no such curve, though single readings can be large or run the other way; also: series mostly up to about 120 µM
# Target sequence (P11473 whole entry, looked up): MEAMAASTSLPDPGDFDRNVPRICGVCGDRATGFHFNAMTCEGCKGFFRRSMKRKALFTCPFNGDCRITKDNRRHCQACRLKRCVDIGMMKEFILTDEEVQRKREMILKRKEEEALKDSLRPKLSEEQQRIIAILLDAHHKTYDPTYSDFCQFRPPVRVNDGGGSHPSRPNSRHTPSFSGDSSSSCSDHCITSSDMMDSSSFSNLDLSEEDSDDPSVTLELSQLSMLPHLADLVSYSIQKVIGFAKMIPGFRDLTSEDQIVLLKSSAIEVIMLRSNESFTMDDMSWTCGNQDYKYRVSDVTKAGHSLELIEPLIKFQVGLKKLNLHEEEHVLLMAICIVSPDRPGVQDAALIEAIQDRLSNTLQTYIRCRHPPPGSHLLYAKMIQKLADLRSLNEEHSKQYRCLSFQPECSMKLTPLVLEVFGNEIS
#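 The screen uses fluorescence polarization to detect compounds that interfere with recruitment of the SRC2-3 coactivator peptide to VDR; plates are read after 2 h at room temperature.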
# * hit, by the source's call; ? = inconclusive; & = joins results of further samples. % is scaled to controls: 0 for no effect and ±100 for the full control effect; potency is read from the fitted curve at half-maximal effect. The list is partial (hit frequency here may not be typical).
VDR inh | SMILES
18% | COc1ccc(CNC(=O)Nc2ccc3c(c2)N(C)C(=O)c2ccccc2S3)cc1
-14% | COCCn1c(=S)[nH]c2cc(C(=O)NCCc3ccc(OC)c(OC)c3)ccc2c1=O
7% | O=C(COC(=O)c1cc(=O)[nH]c2ccccc12)Nc1nc(-c2cccc(Br)c2)cs1
-18% | Cn1c2c(c(=O)n(C)c1=O)C(c1ccccc1Cl)C(C#N)=C(N)O2 (stereo not given)
2% | CCn1c(SCC(=O)c2[nH]c(C)c(C(C)=O)c2C)nnc1-c1ccncc1
79µM* | O=[N+]([O-])c1ccc(C(=S)N2CCN(c3ccc(F)cc3)CC2)cc1
-5% | CN(C)c1cccc(C(=O)OCC(=O)Nc2ccccc2-c2ccccc2)c1
-6% | CCc1ccc(C(=O)c2cn(CC(=O)Nc3ccc(F)cc3)c3ccc(F)cc3c2=O)cc1
-4% | Cn1c(NC(=O)c2ccco2)cc(=O)n(C)c1=O
8% | Cc1nc(SCCOc2ccccc2)[nH]c(=O)c1Cc1ccccc1
-2% | CCN(CCN(C)C)C(=O)Cn1ncc2c([nH]c3ccc(C)cc32)c1=O
-1% | CCC(C)NC(=O)C(Cc1ccccc1)NS(=O)(=O)c1ccc2c(c1)CCC(=O)N2 (stereo not given)
-19% | CN(C)S(=O)(=O)c1cccc(NC(=S)NN=C(Cc2ccccc2)Cc2ccccc2)c1
7% | CCOc1cc(C(=O)O)cc(Cl)c1OCC#N
-2% | O=C(c1ccccc1F)N1CCCC(C(=O)N2CCN(c3ccccc3)CC2)C1 (stereo not given)
-14% | Cc1noc(NC(=O)c2cccc(C(F)(F)F)c2)c1Cl
7% | COc1ccc(NC(=O)c2cnn(-c3ccc(C)c(C)c3)c2C2CCNCC2)cc1OC
-3% | OC1(c2ccc(OC(F)F)cc2)CSC(=Nc2cccnc2)N1Cc1ccco1 (stereo not given)
1% | COc1ccc(-c2nnc(SCC(=O)NC3CCCCC3)nc2-c2ccc(OC)cc2)cc1
19% | COc1nc(NC(C)(C)C)nc(Oc2ccc(=O)n(-c3ccccc3)n2)n1

# Other structures follow.
VDR inh | SMILES
-2% | CCOc1ccccc1C(=O)Nc1cnn(Cc2ccc(F)cc2)c1
6% | COc1ccc(-c2csc(/C(C#N)=C(\O)CSc3nccn3C)n2)cc1OC
? | COC(C(=O)NNC(=O)Cc1ccc(Cl)cc1)c1ccccc1 (stereo not given)
-29% | Cc1ccccc1C(=O)OC(C)CN1CCOCC1 (stereo not given)
-2% | COc1ccc(-c2cc(C(=O)N3CC(C)CC(C)C3)c3ccccc3n2)cc1 (stereo not given)
10% | C=CCNC(=O)COC(=O)c1cc(S(=O)(=O)N2CCOCC2)ccc1N1CCCCC1
-15% | CCC(=O)NNC(=O)c1cc(COc2cc(Cl)cc(Cl)c2)on1
5% | COc1cc(C(C(=O)NC(C)(C)C)N(Cc2ccccc2)C(=O)c2cnccn2)cc(OC)c1OC (stereo not given)
8% | Cn1c2c(c3cc([N+](=O)[O-])ccc31)CCCC2
7% | Cc1cc(C(=O)OCC(=O)Nc2cccc(S(N)(=O)=O)c2)c2ccccc2n1
-14% | CCC(=O)NCCC(c1ccco1)c1ccccc1OC (stereo not given)
56µM* | CC(=O)OC1C=C[C@]2(C)C(CC(OC(C)=O)[C@@]3(C)C4=CC(=O)OC(c5ccoc5)[C@]4(C)CCC23)C1(C)C (stereo not given in full)
-15% | CC(C)CCn1cnc2c(oc3nc4c(cc32)CCCC4)c1=O
-14% | O=C(NCCN1CCOCC1)c1cc2ccccc2oc1=O
-18% | Oc1ccccc1/C=C/c1noc(-c2ccccc2O)n1
23% | O=C(Nc1cccc(C(F)(F)F)c1)Nc1nnc(N2CCCCC2)s1
15% | O=c1c(-c2nc3ccccc3s2)cccn1Cc1ccc(Cl)c(Cl)c1
? | Cc1ccc(CC(C(=O)O)C(C)C(=O)Nc2ccc(F)cc2)cc1 (stereo not given)
9% | COc1ccc2c(c1OC)C(=O)N(c1ccccc1)C2=O
-14% | CN1CCCN(C(=O)c2ccc(Cl)s2)CC1

# Next section:
VDR inh | SMILES
-23% | CC(=O)N1c2ccc(S(=O)(=O)NCCC(=O)Nc3ccc(F)cc3C)cc2CC1C (stereo not given)
0% | CCc1ccccc1NC(=S)N(CCN1CCCCCC1)Cc1ccco1
9%&-8% | CCOC(=O)CC(NC(=O)CCc1c(C)nc2ncnn2c1C)c1ccc(C)cc1 (stereo not given)
-8% | Cc1noc(C(F)(F)F)c1C(=O)NNC(=O)c1ccccc1
-1% | Cc1ccc(CNC(=O)c2nc(SCc3ccccc3F)ncc2Cl)cc1
-14% | O=S(=O)(c1ccc(Cl)cc1)n1nnc2ccccc21
-26% | CCOC(=O)c1cc(-c2ccc(C)o2)n[nH]1
-10% | COc1ccc(C(=O)NCC(=O)OCCOc2ccc(Cl)cc2)cc1OC
5% | CCn1c(COc2ccc(Cl)cc2Cl)nc2ccccc21
? | Cc1ccc(-n2c(CCC(=O)O)ccc2-c2cccs2)cc1
-11% | Cc1ccc(S(=O)(=O)N2CCCC2)cc1C(=O)NCc1ccccc1CN1CCCC1
-4% | Nn1c(-c2ccccc2)cc(-c2ccccc2)cc1=O
5% | COCCn1nnnc1C(c1cc2cc(C)cc(C)c2[nH]c1=O)N1CCN(c2ccccc2F)CC1 (stereo not given)
? | CN(C(=O)c1cccc(NC(=O)Cc2ccc(NC(=O)C3CCCN(S(=O)(=O)c4cccc([N+](=O)[O-])c4)C3)cc2)c1)C1CCCC1 (stereo not given)
4% | O=C(NCc1ccccn1)c1nc(Cn2ccc([N+](=O)[O-])n2)no1
-9% | CC(=O)c1cccc(N(C(=O)c2csnn2)C(C(=O)NC2CCCC2)c2ccccc2)c1 (stereo not given)
-28% | FC(F)(F)c1nnc(-c2ccccc2)nc1Oc1ccc(Cl)cc1Cl
-1% | CN1CCN(C(=O)CN(C2CCCCC2)S(=O)(=O)c2ccccc2)CC1
-21% | CN1CCN(C(=O)c2cc3c(=O)n4ccccc4nc3s2)CC1
6% | Cc1c(Cl)c([N+](=O)[O-])nn1CC(=O)N1CCN(Cc2ccccc2)CC1

# Next section:
VDR inh | SMILES
-1% | Cc1cc(C=C(C#N)C#N)c(C)n1-c1ccccc1
-5% | Cn1c(=O)c2c(nc(NCc3ccco3)n2CC(O)COc2ccccc2)n(C)c1=O (stereo not given)
-3% | COc1ccc(-c2n[nH]c3c2C(c2ccccn2)N(C)C3=O)cc1 (stereo not given)
-7% | O=C(Nc1ccc(Cl)cn1)c1cccc2ccccc12
-4% | CN(C(=O)c1cccc(NC(=O)Cc2ccc(NC(=O)C3CCN(C(=O)C4CC4)CC3)cc2)c1)C1CC1
3% | O=S(=O)(NCc1ccc(Cl)cc1Cl)c1ccc(N2CCOCC2)nc1
-11% | NC(=O)c1c(NC(=O)Cn2nc(C(=O)O)c3ccccc3c2=O)sc2c1CCCC2
7% | CCn1ccnc1CNC(=O)c1ccc(OC2CCN(C(=O)COC)CC2)cc1
2% | O=C1NC[C@@H](c2ccccc2)OC(=O)[C@H](Cc2ccc(F)cc2)C/C=C\C[C@H]1CC(=O)N(CCO)Cc1ccccc1
21% | O=S(=O)(NCc1ccccc1)c1ccc2c(c1)OCCO2
6% | Cc1cccc(Cn2ccc(N)n2)c1
-10% | COc1ccc(OC)c(C(=O)c2coc3ccc(O)c(CN4CCOCC4)c23)c1
10% | COc1ccc(C(CC(=O)N2CCCCC2)NC(=O)C(F)(F)F)cc1 (stereo not given)
-3% | Cc1c(Cl)cccc1NC(=O)CSc1ncnc2c1cnn2CCO
6% | CCc1c(C#N)c(SCCC(=O)Nc2ccc(C)cc2)nc2c1C(=O)CC(C)(C)C2
-15% | CCc1cc(C(=O)OC)c(NC(=O)CN2CCN(C(=O)C3CCCO3)CC2)s1 (stereo not given)
12% | COc1ccc(N(C(=O)c2cccc([N+](=O)[O-])c2)S(=O)(=O)c2cccs2)cc1
1% | COc1ccc(N2CCN(C(=O)c3cc(=O)c4cc(Cl)ccc4o3)CC2)cc1
-4% | Cc1ccc(CNC(=O)COC(=O)c2ccc(S(=O)(=O)N3CCOCC3)cc2)cc1
5% | Cc1cccc(Oc2ccccc2NS(=O)(=O)c2ccc(CCC(=O)O)cc2)c1

# (cont.)
VDR inh | SMILES
4% | COc1cccc(OC)c1OCCOc1ccccc1OC(C)C
-14% | CC(C)c1ccc(OCC(=O)NCc2ccccc2)cc1
5% | O=C(COc1ccccc1)Nc1c(C(=O)N2CCC(N3CCCCC3)CC2)oc2ccccc12
2% | COC(=O)c1ccc(CO/N=C/c2cccc([N+](=O)[O-])c2)cc1
-1% | COc1ccc(-c2noc(CCC(=O)N3CCN(c4ccccc4)CC3)n2)cc1
-4% | CCS(=O)(=O)N1CCN(c2ccc(S(=O)(=O)N3CCOCC3)cc2)CC1
-10% | CCCCn1nc(C(=O)N2CCN(S(=O)(=O)c3ccccc3)CC2)c2ccccc2c1=O
-7% | Cc1cccc(C(=O)Nc2cccc3cccnc23)c1
1% | OC(COc1cccc(OCC(O)CN2CCCC2)c1)CN1CCCC1 (stereo not given)
3% | CCCCCn1c(CN2CCCCC2CC)nc2c1c(=O)n(C)c(=O)n2C (stereo not given)
-2% | CCCN1CCN(CCNC(=O)Nc2ccccc2OCC)CC1
9% | CCn1c(SCC(=O)Nc2ccc(N(C)C)cc2)nnc1-c1ccco1
-5% | Cc1cccc(-n2c(=O)c3c(c4cc(C)ccc4n3C)n(CC(=O)Nc3ccccc3C(F)(F)F)c2=O)c1
-10% | CCOCCCNC(=O)CNC(=S)N(Cc1ccc(C)cc1)Cc1ccco1
1% | COc1ccc(-c2noc(CSc3nc4ccccc4[nH]3)n2)cc1OC
? | O=C(NCCn1cc(SCc2ccccc2)c2ccccc21)c1c(F)cccc1F
0% | O=C1c2ccccc2C(=O)N1Cc1cnc(N2CCN(c3ccccc3)CC2)s1
-11% | Cc1ccc(CNC(=O)C2CCCN(S(=O)(=O)c3c(C)noc3/C=C/N(C)C)C2)cc1 (stereo not given)
-8% | CCC(C)c1ccc(OCC(=O)Nc2cccc3ccc(C)nc23)cc1 (stereo not given)
4% | Cc1onc(-c2ccccc2Cl)c1C(=O)N1CCN(Cc2ccc3c(c2)OCO3)CC1

# The results go on.
VDR inh | SMILES
-13% | COc1cc(NC(=O)C2=C(N3CCOCC3)/C(=C\c3ccc(N(C)C)cc3)CCC2)cc(OC)c1OC
-7% | COc1ccc(CC(=O)n2nc(-c3cccnc3)nc2N)cc1
13% | S=C(NCc1ccco1)NCC1CCCO1 (stereo not given)
7% | O=C(Nc1cccnc1)c1cnn2c(C(F)F)cc(C3CC3)nc12
2% | Cc1ccccc1NC(=O)c1cc(=O)c2ccccc2o1
14% | O=C(O)Cc1c[nH]c2ccccc12
-8% | COCCn1c(=O)c2cc3c(=O)n(CCOC)c(=O)c3cc2c1=O
3%&-3% | CCOc1ccccc1CNCCNC(=O)c1nonc1N
-15% | Cc1ccsc1/C=N/Nc1cccc(C(=O)O)c1
-5% | O=C(CNc1cccc([N+](=O)[O-])c1)N/N=C/c1ccc([N+](=O)[O-])o1
-2% | O=C(c1cccc(Cl)c1)N1CCN(C(=O)c2ccco2)CC1
8% | CCOCc1[nH]c(=S)[nH]c(=O)c1Cc1ccc(OCC(C)C)cc1
-2% | CC1CN(C(=O)CSc2nnc(CNC(=O)c3ccc(S(=O)(=O)N(C)C)cc3)o2)CC(C)O1 (stereo not given)
1% | Cc1cc(Cl)c2oc(C(=O)N(C)Cc3cc(C)[nH]n3)c(C)c2c1
-8% | Cc1ccc(/C=C/C(=O)N2CCN(Cc3ccccc3)CC2)o1
? | O=C(COC(=O)c1ccccn1)c1ccc([N+](=O)[O-])cc1
-11% | C=CCOC(=O)N[C@@H](Cc1ccccc1)/C(C(=O)OC)=C(\C)NCc1ccccc1
-9% | CC(C)C(=O)NNc1ccc(C(F)(F)F)cn1
? | CCOC(=O)C1=C(c2ccc(OC)cc2)OC(N)=C(C#N)C1c1cccnc1 (stereo not given)
-3% | Cc1cc(C)cc(-n2c(C)cc(C(=O)C(=O)Nc3nnc(C)s3)c2C)c1

# Carrying on.
VDR inh | SMILES
2% | CC(C)N(C(=O)[C@H]1C[C@H](CC(=O)NC(C)(C)C)C(=O)N2CCc3c([nH]c4cc(CCC(=O)N(C)C)ccc34)[C@]12C)C(C)C
1% | Cc1c(NC(=O)/C=C/c2cn(-c3ccccc3)nc2-c2ccccc2)c(=O)n(-c2ccccc2)n1C
-1% | Cc1nnc(SCC(=O)N2CCCCC2)n1CC1CCCO1 (stereo not given)
-12% | CC1(C)OC(=O)C2(Cc3ccccc3N3CCC(c4ccccc4)CC32)C(=O)O1 (stereo not given)
9% | CN(C)CC(C)(C)CNC(=O)C1CCN(Cc2ccccc2O)CC1
-9% | Cn1c(SCC(=O)N2CCCC2=O)nc2ccccc2c1=O

# Screening data deposited in PubChem BioAssay by National Center for Advancing Translational Sciences (NCATS).
